KSHV LANA nucl: inhibitors of KSHV LANA-nucleosome binding, primary screen, biochemical, fluorescence polarization, FITC-LANA1-23, chicken nucleosomes | FITC-LANA1-23 / chicken nucleosome fluorescence polarization; stronger effect = lower value | 51,000 compounds, 0.3% hits | z-score (no concentration beside the values) | AID 720717, 2013;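 active means both repeat wells score below -2 in polarization z-score versus plate sample wells, excluding overly bright wells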;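 further: 100 nL library stock added to about 30 µL; numbers are from one replicate; some results filed as inactive read as strong as hits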
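System – purified chicken nucleosomes with FITC-labelled LANA N-terminal peptide (1-23) · Amount – 240 nM purified chicken nucleosomes (480 nM peptide binding sites), final · Also added – 50 nM FITC-LANA1-23 probe · Medium – TEN-BT buffer, pH 7.5 · Incubation – compound with peptide–nucleosome mix 10–45 min at room temperature · Detection – fluorescence polarization, ex 480 nm, em 535 nm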
BasE inh: BasE siderophore enzyme inhibitors, primary screen, biochemical, Acinetobacter baumannii ATCC 17978, fluorescence polarization; purified BasE, fluorescence polarization binding displacement; inhibition, % (test concentration not listed); 84,000 compounds, 0.1% hits;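 active means both replicates above 25% with normal brightness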;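 further: 0% = negative plate control signal and 100% = positive plate control signal; stock transfer was 100 nL into about 30 µL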
* marks the source's active call; other numbers are inactive results; x = no result given; & = joins results of further samples. Only part of the results is shown (hit frequency here may not be typical).

SMILES	KSHV LANA nucl	BasE inh
CC1CC(CC(C)C(=O)Nc2cc(Cl)ccc2Cl)C(=O)O1 (configuration not stated)	0.81	-0.4
CCn1c(NN)nc2sc3c(c2c1=O)CC(C)(C)OC3	0.12	0.3
CC(C)C(=O)Nc1ccc(NCc2cccs2)cc1	0.41	2.7
O=C(CCc1ccccc1)NNc1cc(N2CCCCC2)nc(N2CCCCC2)n1	1.3	-0.7
CN(C)c1cc(NCc2ccco2)c2c3c(onc13)-c1ccccc1C2=O	-0.26	-1.5
CCOC(=O)c1ccc(N=Cc2c(O)n(CC)c(=O)[nH]c2=O)cc1	-0.12	-0.8
Cn1cnnc1SCC(=O)NCc1ccccc1	x	0.7
CCCNc1c(NC(=O)C2CCC(C)CC2)c(=O)oc2ccccc12 (configuration not stated)	-0.23	0.2
CC(C)CNC(N)=O	x	-1.2
c1ccc2oc(SCc3nc4ccccc4s3)nc2c1	x	0.8
CC(=O)OCC(=O)[C@@]1(O)[C@H](C)CC2C3CCC4=CC(=O)C=C[C@]4(C)[C@@]3(F)[C@@H](O)C[C@@]21C (some centres not stated)	0.43	3.0
COc1ccc(CNCc2cccs2)c(OC)c1OC	-2.5	-0.1
N#C/C(=C\c1ccc(Cl)c(Cl)c1)c1ccc(NC(N)=O)cc1	x	1.5
O=C(COc1ccc(Cl)cc1)NCCN1CCCCC1	0.24	1.7
CCCn1cc(S(=O)(=O)c2ccc(OC)cc2)c(=O)c2cc(F)c(N3CCN(C)CC3)cc21	2.6	-23
CN(C(=O)CN1N=NC2C(=O)N(c3ccc(Br)cc3)C(=O)C21)c1ccccc1 (configuration not stated)	-0.21	1.9
CC(C)NC(=O)C1CCN(C(=O)c2ccc(-n3ccc4ccccc43)s2)CC1	0.091	-1.2
N=C(N=Nc1c(O)n(Cc2ccccc2)c2ccccc12)SCC(=O)Nc1ccccc1	-0.28	2.6
COc1cccc(CN(C)Cc2cc(=O)oc3cc(O)c(Cl)cc23)c1	x	1.1
CC(C)(C)CC(C)(C)NC(=O)C1CCCO1 (configuration not stated)	-0.46	2.5

Three entries already listed, sorted by their value in KSHV LANA nucl, rising:
smiles | KSHV LANA nucl
COc1ccc(CNCc2cccs2)c(OC)c1OC | -2.5
N=C(N=Nc1c(O)n(Cc2ccccc2)c2ccccc12)SCC(=O)Nc1ccccc1 | -0.28
CC1CC(CC(C)C(=O)Nc2cc(Cl)ccc2Cl)C(=O)O1 (configuration not stated) | 0.81

Other structures follow:
SMILES	KSHV LANA nucl	BasE inh
N#Cc1cc2c(ccc3ccccc32)oc1=O	-0.64	0.4
CC1(C)OC(=O)C(=Cc2ccc(F)cc2)C(=O)O1	-0.21	3.6
Cc1nc(NCC2CCCO2)nc2c1C(=O)CC(C)(C)C2 (configuration not stated)	-1.7	-1.3
CCN(CC)C(=O)c1cc2ccccc2oc1=O	0.38	6.6
FC(F)(F)COc1nc(OCC(F)(F)F)nc(N(c2ccccc2)c2ccccc2)n1	-0.79	1.2
CC1CC(C)CN(S(=O)(=O)c2ccc3c(c2)CCN3C(=O)CCC(=O)O)C1 (configuration not stated)	-0.72	1.7
COc1ccc(C(=O)/C(C#N)=C/N(C)C)cc1	0.2	x
CCOC(=O)c1cc(CC)sc1NC(=O)CCN1CCCCC1	-0.57	-2.0
c1ccc(-c2cc3c(N4CCCC4)ncnc3s2)cc1	-0.45	x
O=C(O)c1ccccc1C(=O)Nc1cc(C(F)(F)F)ccc1N1CCCC1	-0.19	x
O=C(O)CCOc1ccccc1F	x	-0.3
CC(C)NC(=O)CSc1nc(-c2ccco2)cc(C(F)(F)F)n1	-0.69	0.5
Cc1cc(C(=O)N2N=C(C3CC3)CC2(O)C(F)F)cs1 (configuration not stated)	0.55	0.9
OC(CN1CCN(c2ccccc2F)CC1)Cn1nnnc1-c1ccccc1 (configuration not stated)	-0.13	-0.1
CCc1nn(CC(=O)N2CCN(C)CC2)c(=O)c2cccn12	-0.15	0.4
Cc1ccc(Nc2nc(N)nc(CSc3nccn3C)n2)cc1	2.1	-3.9
Cc1noc(C)c1S(=O)(=O)N1Cc2ccccc2CC1C(=O)Nc1ccc(Cl)cc1 (configuration not stated)	-0.91	0.4
CCc1nnc(NC(=O)c2ccc3c(c2)S(=O)(=O)N=C2CCCCCN23)s1	x	-3.3
COC(=O)C1=CN(CC(C)C)C=C(C(=O)OC)C1c1cccs1	0.041	-20
c1ccc(-c2cnnn2-c2ccccc2)cc1	0.059	-1.8

No new results follow: entries from further up.
SMILES	KSHV LANA nucl	BasE inh
N#Cc1cc2c(ccc3ccccc32)oc1=O	-0.64	0.4
CC1(C)OC(=O)C(=Cc2ccc(F)cc2)C(=O)O1	-0.21	3.6
Cc1nc(NCC2CCCO2)nc2c1C(=O)CC(C)(C)C2 (configuration not stated)	-1.7	-1.3
CCN(CC)C(=O)c1cc2ccccc2oc1=O	0.38	6.6
FC(F)(F)COc1nc(OCC(F)(F)F)nc(N(c2ccccc2)c2ccccc2)n1	-0.79	1.2
CC1CC(C)CN(S(=O)(=O)c2ccc3c(c2)CCN3C(=O)CCC(=O)O)C1 (configuration not stated)	-0.72	1.7
COc1ccc(C(=O)/C(C#N)=C/N(C)C)cc1	0.2	x
CCOC(=O)c1cc(CC)sc1NC(=O)CCN1CCCCC1	-0.57	-2.0
c1ccc(-c2cc3c(N4CCCC4)ncnc3s2)cc1	-0.45	x
O=C(O)c1ccccc1C(=O)Nc1cc(C(F)(F)F)ccc1N1CCCC1	-0.19	x
O=C(O)CCOc1ccccc1F	x	-0.3
CC(C)NC(=O)CSc1nc(-c2ccco2)cc(C(F)(F)F)n1	-0.69	0.5
Cc1cc(C(=O)N2N=C(C3CC3)CC2(O)C(F)F)cs1 (configuration not stated)	0.55	0.9
OC(CN1CCN(c2ccccc2F)CC1)Cn1nnnc1-c1ccccc1 (configuration not stated)	-0.13	-0.1
CCc1nn(CC(=O)N2CCN(C)CC2)c(=O)c2cccn12	-0.15	0.4
Cc1ccc(Nc2nc(N)nc(CSc3nccn3C)n2)cc1	2.1	-3.9

Continued.
SMILES	KSHV LANA nucl	BasE inh
CC(C#N)Sc1nnc(-c2ccccc2F)n1CCc1ccccc1 (configuration not stated)	x	-0.8
Cc1cc(C)nc(SCc2csc(N)n2)n1	-1.1	4.4
CC(C)CN1C(=O)c2ccc(C(=O)O)cc2C1=O	0.84	0.1
CCOC(=O)c1c(NC(=O)CSc2n[nH]c(N)n2)sc(C(=O)N(CC)CC)c1C	x	-2.2
c1ccc(CSc2nnc(-c3cccs3)n2-c2ccccc2)cc1	x	-0.1
Cc1ccc(N2C(=O)/C(=C/C=C/c3ccccc3)SC2=S)cc1	x	0.8
O=C(c1ccccc1)c1ccc(OCC(O)CNCC2CCCO2)cc1 (configuration not stated)	x	-0.7
O=C1CC(C2CCCC=C2N2CCOCC2)C(=O)N1Cc1ccccc1 (configuration not stated)	-1.4	2.6
O=C(CN1CCC(Cc2ccccc2)CC1)c1c[nH]c(C(=O)N2CCCC2)c1	x	1.0
O=C(CN1C(=O)C2CC=CCC2C1=O)NCCc1ccccc1 (configuration not stated)	x	-1.6
COC(C(=O)N/N=C/c1cc(Br)c(C)o1)c1ccccc1 (configuration not stated)	0.001	-0.1
CC(=O)Oc1c(C)cc(O)c2ccccc12	-0.65	2.5
O=C(CN1CCCCC1)Nc1nonc1NC(=O)CN1CCCCC1	0.17	-0.4
COc1cccc(C(=O)NCc2nc(-c3ccccc3Cl)no2)c1	-0.013	-1.8
Cc1[nH]c2ccccc2c1C(=O)C(C)N1CCN(C(=O)c2ccccc2)CC1 (configuration not stated)	x	-1.0
NC(CC(=O)O)c1ccsc1 (configuration not stated)	-1.2	x
CCc1ccc[n+](-c2[nH]c(=O)sc2/C=N/N=C(/N)[O-])c1	x	2.0
CCN(CC)S(=O)(=O)c1ccc(Cl)c(C(N)=O)c1	0.076	2.1
Fc1ccc(-n2c(Cc3ccsc3)n[nH]c2=S)cc1	0.14	-0.6
CC12C=CC(=O)C=C1CCC1C2=CCC2(C)C1CC[C@@H]2C(=O)CN1CCN(c2cc(N3CCCC3)nc(N3CCCC3)n2)CC1 (some centres not stated)	0.79	-3.2
Cc1ccc(NC(=O)c2ccc3ncsc3c2)c(O)c1	x	0.5
O=c1[nH]c2ccccc2n1CN1CCC(c2nc3ccccc3s2)CC1	x	-4.2
c1cnc(SCc2cn3ccsc3n2)nc1	x	0.6
COc1ccc(C2=NN(C(=O)CNc3ccccc3C(=O)Nc3ccccc3)C(c3ccco3)C2)cc1 (configuration not stated)	x	0.4
Cc1ccccc1N(CC(=O)NC1=NCCS1)S(C)(=O)=O	x	0.3
O=C(NCC1CCCO1)NC1CCCCC1 (configuration not stated)	0.12	2.5
CCC(Oc1cccc(Cl)c1)C(=O)NN1CCN(C)CC1 (configuration not stated)	0.28	0.7
C=CCN1C(=S)N(c2ccccc2)C2CS(=O)(=O)CC21 (configuration not stated)	0.16	5.6
CC1(C)C2CCC1(C)C(NC(=O)c1cc(=O)[nH]c3ccccc13)C2 (configuration not stated)	x	0.4
Cc1ccc(S(=O)(=O)N(C)CC(=O)N2CCC(C)CC2)cc1	1.3	2.0
COc1ccc(N(C)C(=O)NCc2noc3ccccc23)c(OC)c1	-0.42	3.0
O=C(Cn1[nH]c(=O)c2ccccc2c1=O)NC1CCCc2ccccc21 (configuration not stated)	x	1.3
CCc1nc2ccc(C(=O)NC)cc2nc1CC	-1.3	1.6
CN1C=CC=C/C1=C1\SC(=S)N(Cc2ccccc2)C1=O	-1.4	1.7
CCCCOc1ccc2c(c1)C(=O)c1cc(O)ccc1-2	0.51	-0.2
CSCCNC(=O)Nc1ccc(Cl)cc1	0.19	-0.4
CC1=NN(CCC(=O)O)CC1	0.097	-1.9
CC(C)(Sc1cc(C(C)(C)C)c(O)c(C(C)(C)C)c1)Sc1cc(C(C)(C)C)c(O)c(C(C)(C)C)c1	-0.38&-0.051&-0.077	-2.2&2.6
CCc1nn(C(C)C(=O)N2CCN(c3cccc(OC)c3)CC2)c(=O)c2cc3occc3n12 (configuration not stated)	-1.3	-3.4
c1cncc(CN2CNc3nc4ccccc4n3C2)c1	0.89	15
Cn1c(=O)c2cnc(N3CCCCC3)nc2n(C)c1=O	x	0.7
COC(=O)c1cnc(Nc2ccccc2)nc1C(F)(F)F	x	2.3
Cc1c(CO)c2ccccc2n1Cc1ccccc1	-0.78	1.2
Cc1ccccc1OCC(=O)NN=C1CCN(C)CC1	-0.5	0.5
NC(=O)c1ccc(F)c(F)c1	x	0.5
CC(C)C(c1nnnn1C(C)(C)C)N(Cc1cc2cc3c(cc2[nH]c1=O)OCCO3)C1CCCCC1 (configuration not stated)	-0.27	0.0
O=C1CC(C(=O)Nc2cccc(F)c2)n2c(nc3ccccc32)N1 (configuration not stated)	-0.46	-0.6
CSc1cccc(NC(=O)CNS(=O)(=O)c2ccc(C)cc2)c1	-1.8	1.1
COc1ccc2nc(Nc3nc4ccccc4s3)sc2c1	-0.94	2.2
Cc1noc(C)c1-c1nc(CS(=O)(=O)c2ccsc2)no1	1	-0.9
COc1ccc(C)cc1CCNCc1cnn(-c2ccccc2)n1	x	-0.8
CCS(=O)(=O)c1ccc(OC)c(N2NOC=C2O)c1	0.55	-0.1
CCN(CC)CC(=O)Nc1sc2c(c1C#N)CCCC2	0.042	-0.4
CC(C)CCn1c(=O)c2ccccc2n2c(CSc3n[nH]c(N)n3)nnc12	x	-1.4
COC(=O)c1sc(N)c(C(=O)OC)c1COC(=O)CSc1nnnn1-c1cc(C)ccc1C	x	-3.8
CCCCOc1ccccc1C(=O)N(Cc1cccc(F)c1)Cc1ccco1	3	-0.5
Cc1cc(=O)oc2cc(OCC(=O)Nc3ccccc3)ccc12	-0.55	1.1
Nc1ccccc1CC(c1c[nH]c2ccccc12)c1c[nH]c2ccccc12	x	-0.2
Oc1ccc(SSc2ccc(O)cc2)cc1	1	8.0
CCOC(=O)/C=c1\s/c(=C\c2cccs2)c(=O)n1CC(N)=O	x	0.2
(cont.)
SMILES	KSHV LANA nucl	BasE inh
O=C(c1c[nH]c(-c2nnc3ccccn23)c1)c1ccccc1O	x	-0.6
Cc1c(NC(=O)c2nn(C(C)C)c(=O)c3ccccc23)c(=O)n(-c2ccccc2)n1C	x	-1.0
O=C(Nc1ccccc1)ON=C1CCCC1	-0.6	2.2
O=C(Cc1ncc(C(F)(F)F)cc1Cl)NO	-0.095	x
Cc1nc2c(cc1C#N)C(O)Oc1c(Cl)cc(Cl)cc1-2 (configuration not stated)	x	-4.8
CCn1c(=O)n(CC)c2cc(N3CCCC3)c(NS(C)(=O)=O)cc21	-0.023	0.7
Cc1[nH]c(-c2ccc(F)cc2)cc1C(=O)N1CCN(C2CCCCC2)CC1	0.35	-0.4
CCOc1ccc(N=C(c2ccccc2)N2CCOCC2)cc1	-1.4	-1.3
Cc1ccc(-n2c(SCCCC#N)nnc2-c2ccccc2)cc1C	x	-1.7
CCOC(=O)C1CCCCN1Cc1ccc(C)cc1 (configuration not stated)	-0.56	-1.1
COC(=O)CN(C(=O)c1cc2ccccc2oc1=O)c1ccc(Br)cc1	x	2.1
COc1ccc(-c2ccc(C(=O)O)c(=O)[nH]2)cc1	-0.027	-0.9
CC(C)Oc1ccccc1Nc1ncnc2ccccc12	x	-1.6
CC1CCCCN1C(=O)CNCc1ccc(F)cc1 (configuration not stated)	-0.47	-0.7
Cc1cc(C)nc(/N=C(/NC(=O)Nc2cccc(Cl)c2)Nc2ccccc2C)n1	x	1.3
COC(=O)c1ccc(OC(=O)c2cccnc2SC)cc1	x	1.1
OC(CSc1ccc(Cl)cc1)CN1CCOCC1 (configuration not stated)	x	1.1
